# TAR Tat displ: TAR RNA-Tat peptide displacers, HIV-1, primary screen, biochemical, FRET, FAM/TAMRA-labeled Tat. HIV-1 TAR RNA, Tat peptide displacement FRET; hits give high values. z-score (concentration not given with the values). hit rate 0.6% among 100,000;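 also: score is relative to mean and SD of negative controls; some compounds called inactive have numbers as strong as hits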
# CDC25B CDK2 inh: primary biochemical HTRF screen for blockers of M-phase inducer phosphatase 2 binding to CDK2/cyclin A; z-score (test concentration not listed); HTRF CDC25B-CDK2/CyclinA binding, anti-His/anti-Flag; hits give high values; AID 1259370, 2018; P30305+P24941; hit rate 0.72% among 94,000;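 also: score is relative to mean and SD of negative controls; strong numbers were not always called active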
# * = called active by the depositor; nt = no result given.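 The calls were made as follows: active = z-score from 3 up in half or more of its runs; inactive = the rest.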
no.	compound	TAR Tat displ	CDC25B CDK2 inh
1	COc1cc(C(=O)O[C@H]2CC[C@@]3(C)[C@@H]4CC[C@H]5[C@]6(O)C[C@H](O)[C@@]7(O)[C@@H](CN8C[C@@H](C)CC[C@H]8[C@@]7(C)O)[C@]6(O)C[C@@]53OC24O)cc(OC)c1OC	1.5	nt
2	O=C1Nc2ccccc2C(=O)C1=Ic1ccccc1	nt	-2.7
3	CCCSC1=C(C#N)C(c2ccc(C)cc2)CC(=O)N1 (stereo not drawn)	1.9	-2.7
4	CC1CCN(CCCNS(=O)(=O)c2cc(Br)cc3c2N(C(=O)C2CC2)CC3)CC1	-0.96	-1.2
5	COc1ccc(C2=C(C)C(N3CCN(C4CCCCC4)CC3)=NS2(=O)=O)cc1	1.4	-2.1
6	CN(C)/C=N/C(=S)Nc1cccc(Cl)c1	nt	-0.58
7	CCOC(=O)c1cc(S(=O)(=O)N2CC(C)CC(C)C2)cn1C (stereo not drawn)	0.87	-1.3
8	CN(C)CCNC(=O)c1c(O)c2cccc3c2n(c1=O)CC3	0.74	nt
9	Cc1ccc(CN(C(=O)c2cc(-c3ccc4c(c3)OCCO4)on2)C2CCS(=O)(=O)C2)cc1 (stereo not drawn)	2.1	-2.8
10	Clc1ccc(-n2ncc3c(N4CCOCC4)ncnc32)cc1	1.6	nt
11	COc1ccc(CSc2nc(C)[nH]c2[N+](=O)[O-])cc1Br	2.6	-0.48
12	CC(=O)N1CC(=O)N/C(=C\c2cccnc2)C1=O	nt	0.71
13	O=C(Cn1cnc(S(=O)(=O)N2CCc3ccccc32)c1)NCc1cccs1	-0.6	nt
14	Cc1cc(NC(=O)CSc2nn3c(=O)c(C)nnc3s2)no1	-0.04	nt
15	COC(=O)c1sc2cccc(F)c2c1S(=O)(=O)N1CCC(C(N)=O)CC1	0.96	nt
16	CCC(=O)N1c2ccc(S(=O)(=O)CCC(=O)Nc3ccc(F)cc3Cl)cc2CC1C (stereo not drawn)	1	nt
17	COC(=O)C1C2C=CC3(CN(CC4CCCO4)C(=O)C13)O2 (stereo not drawn)	nt	-1.4
18	Cc1c(NC(=O)C2COc3ccccc3O2)c(=O)n(-c2ccccc2)n1C (stereo not drawn)	1.6	-0.54
19	CC(C)S(=O)(=O)c1cscc1NC(=O)c1ccc(-c2ccccn2)s1	nt	-0.67
20	O=S(=O)(c1cccc(F)c1)N(Cc1cc(CN2CCOCC2)cs1)c1cccc(F)c1	0.96	nt
21	Cc1nc(-c2ccc(C)c(S(=O)(=O)N3CCc4ccccc43)c2)cs1	1.5	nt
22	Cn1nnnc1SCCCNCc1ccc(-c2ccc(Cl)cc2)o1	0.35	-0.16
23	O=S1(=O)C[C@H](N2CCN(c3ccc(F)cc3)CC2)[C@@H](S(=O)(=O)c2ccccc2)C1	1	-0.19
24	CCN(CC)c1ccc(NC2=NS(=O)(=O)C(c3ccccc3)=C2C)c(C)c1	-2.6	-2.2

# One compound at a time, as listed above.
# `CCCSC1=C(C#N)C(c2ccc(C)cc2)CC(=O)N1` (stereo not drawn) is listed as TAR Tat displ: 1.9; CDC25B CDK2 inh: -2.7
# `CCN(CC)c1ccc(NC2=NS(=O)(=O)C(c3ccccc3)=C2C)c(C)c1` is listed as TAR Tat displ: -2.6; CDC25B CDK2 inh: -2.2
# `O=C1Nc2ccccc2C(=O)C1=Ic1ccccc1` is listed as TAR Tat displ: nt; CDC25B CDK2 inh: -2.7

# Additional results
no.	compound	TAR Tat displ	CDC25B CDK2 inh
25	CC1(C)CC(=O)C2=C(C1)Nc1ccccc1NC2c1ccccc1F (stereo not drawn)	-14	-1
26	CC(C)(C)c1ccc2c(c1)CN(C1CCCCC1)CO2	nt	0.33
27	O=C(c1ccc2nc3ccc(Cl)cc3c(=O)n2c1)N1CCCCCC1	nt	-2.1
28	O=S(=O)(NCCc1csc2nc(-c3ccccc3F)nn12)c1ccc(Br)cc1	1.9	nt
29	O=c1cc(CSc2nnc(-c3cccs3)o2)nc2sc(C3CCCCC3)nn12	0.32	-2
30	COC(=O)c1ccc(C2c3c(oc4ccccc4c3=O)C(=O)N2c2nnc(C)s2)cc1 (stereo not drawn)	-0.02	0.89
31	O=C(NCc1cccn1Cc1ccc(Cl)cc1)Nc1ccc(F)cc1F	0.94	nt
32	CCOC(=O)N1CCN(C(=O)CSc2nnc(-c3ccc(C(C)(C)C)cc3)o2)CC1	1	-1.6
33	c1ccc(CN2CCC(n3c(-c4ccccc4)nc4cccnc43)CC2)cc1	-8.1	nt
34	S=C(N/N=C1\CSCc2ccccc21)Nc1cc(Cl)ccc1Cl	nt	-0.6
35	O=C(c1cc2c(s1)-c1ccc(Cl)cc1S(=O)(=O)C2)N1CCc2ccccc21	1.6	-1.2
36	CC(CNc1nc2ccccc2c2nc(-c3ccncc3)nn12)c1ccccc1 (stereo not drawn)	2.6	-0.94

# Continued (two carried over from the part before).
no.	compound	TAR Tat displ	CDC25B CDK2 inh
35	O=C(c1cc2c(s1)-c1ccc(Cl)cc1S(=O)(=O)C2)N1CCc2ccccc21	1.6	-1.2
36	CC(CNc1nc2ccccc2c2nc(-c3ccncc3)nn12)c1ccccc1 (stereo not drawn)	2.6	-0.94
37	CCCc1nc2nc(C)c(NS(=O)(=O)c3ccc(C(C)(C)C)cc3)c(=O)n2[nH]1	0.96	-1.8
38	CCCCOC(=O)n1c(=O)oc2ccc(S(=O)(=O)N3CCCCC3)cc21	-0.1	-2.1
39	COc1ccc(OC)c(C(=O)CSc2nccn(-c3ccc(Cl)cc3)c2=O)c1	-0.11	nt
40	CCCn1c(=O)c2sccc2n2c(CCCC(=O)NC3CCCC3)nnc12	-1.4	nt
41	Cc1c(NC(=O)CSc2ccc(Cl)cc2)c(=O)n(-c2ccccc2)n1C	0.84	0.2
42	O=C1CNC(=S)N1Cc1ccco1	nt	-2
43	COCCNC(=O)CCc1nnc2ccc(NCc3ccc4c(c3)OCO4)nn12	0.95	nt
44	COC(=O)C1=C(C)N=C2SCCC(=O)N2C1c1ccc(C(C)C)cc1 (stereo not drawn)	1.7	-1.6
45	CCOC(=O)CSc1nn(C)c2nc3c(c(=O)n12)C(C)(CC)Cc1ccccc1-3 (stereo not drawn)	-0.34	-0.9
46	CSc1nc(-c2ccccc2)cc(-n2cnc3ccccc32)n1	1.1	-3.8
47	CC(C)(C)c1nc2scc(-c3cccs3)c2c(=O)o1	nt	-0.76
48	O=C(c1cc2c(s1)-c1ccccc1OC2)N1CCN(c2ccccc2F)CC1	-0.01	-0.51
49	CCN(CC)c1ccc(C2C(C(=O)OCC3CCCO3)=C(C)NC3=C2C(=O)CCC3)cc1 (stereo not drawn)	1.9	-1.4
50	Cc1c(C)n(-c2ccccc2)c2ncnc(Cl)c12	-0.35	-0.72
51	CC(=O)Oc1ccc(N2C(=O)CC(Nc3ccc(N4CCOCC4)cc3)C2=O)cc1 (stereo not drawn)	-1.7	-3.4
52	O=C(O)CCCC(=O)N1N=C(c2ccccc2)CC1c1ccccc1F (stereo not drawn)	0.4	-1
53	Cn1cnc([N+](=O)[O-])c1NCCN1CCNC1=O	nt	0.15
54	CC(=O)N1N=C(c2cc(C)nc3ccccc23)OC1c1cccs1 (stereo not drawn)	3.8*	nt
55	Cc1noc(-c2ccc(-c3noc(-c4ccc(F)cc4)n3)cc2)n1	0.71	nt
56	COc1cc2c3c(c1OC)C1(C=CC(=O)C=C1)CC3NCC2 (stereo not drawn)	-2.1	-1.8
57	COc1ccc(C2CC(C(F)(F)F)n3ncc(C(=O)N4CCCc5ccccc54)c3N2)cc1OC (stereo not drawn)	nt	-1.6
58	CC(C)CCNC(=O)C(=O)Nc1c2c(nn1-c1ccccc1)CS(=O)(=O)C2	1.2	nt
59	CCCCC(C(N)=O)C1=NC(C)(C)Cc2ccccc21 (stereo not drawn)	-0.26	-0.43
60	CCC(NC1CCS(=O)(=O)C1)C(=O)O (stereo not drawn)	-0.49	2.5
61	COc1cc(C)c(C)cc1S(=O)(=O)Nc1cc(N2CCCS2(=O)=O)ccc1C	1.1	nt
62	CSc1cccc(N2C(=O)c3ccncc3C2=O)c1	0.28	nt
63	CCc1nn2c(=O)cc(CN3CCc4ccccc43)nc2s1	-0.04	-0.07
64	CC1CCCCC1NC(=O)Cn1ncc2c3ccccc3n(C)c2c1=O (stereo not drawn)	-0.83	-0.58
65	Cc1ccc(Cn2cc3c(n2)-c2c(oc(C(=O)O)c2C)CC3)cc1	2.6	0.7
66	COc1cccc(-c2cn3c(n2)sc2cc(C(=O)N4CCc5ccccc54)ccc23)c1	3.6	nt
67	CC(C)C(=O)Oc1cccc(-n2cnnn2)c1	-0.17	-2.1
68	CSc1ncc2c(=O)n(CC(=O)Nc3ccccc3)cnc2n1	-0.25	nt
69	CSC(=N)N	nt	-1.1
70	N#Cc1nccnc1N1CCN(c2ccccc2)CC1	nt	-0.07
71	COc1ccc(OC)c(CN2CCN(C(=O)c3ccc(-c4ccccc4)cc3)CC2)c1	nt	0.1
72	Cc1nc2c(c(C)nn2C(C)(C)C)c(C)c1CCC(=O)NC(C)C	1.2	-0.76

# Random excerpt: two compounds from above, in no set order.
no.	compound	TAR Tat displ	CDC25B CDK2 inh
36	CC(CNc1nc2ccccc2c2nc(-c3ccncc3)nn12)c1ccccc1 (stereo not drawn)	2.6	-0.94
7	CCOC(=O)c1cc(S(=O)(=O)N2CC(C)CC(C)C2)cn1C (stereo not drawn)	0.87	-1.3

# Further results:
no.	compound	TAR Tat displ	CDC25B CDK2 inh
73	O=C(NCc1ccco1)c1ccc(Cn2nc(N3CCN(c4ccc(F)cc4)CC3)ccc2=O)o1	1.4	nt
74	O=c1c(N2CCOCC2)csc2ccccc12	-0.95	nt
75	O=C(Nc1cccc2nsnc12)c1nc(-n2cnnc2)ccc1Br	2.5	nt
76	Cn1c(=O)c2c(-c3ccc(C(C)(C)C)cc3)n(-c3cccc(N)c3)cc2n(C)c1=O	2	-2.5
77	O=C(CCCCCn1c(=O)[nH]c2ccsc2c1=O)NCC1CCCO1 (stereo not drawn)	-1.9	-1.9
78	COc1ccc(N2C(=O)C3C4c5ccccc5C(C(C)O)(c5ccccc54)C3C2=O)cc1 (stereo not drawn)	0.19	-1.7
79	Cc1ccc(S(=O)(=O)N2CCN(c3ccc4nnc(-c5ccccc5)n4n3)CC2)cc1	-0.69	-0.58
80	CCc1nn2c(C(=O)OC)cc(=O)nc2s1	nt	0.4
81	CC(C)C[C@H](NC(=O)OC(C)(C)C)C(=O)OCc1ccc(CC(=O)O)cc1	nt	-0.83
82	Cc1ccc(C2c3c(oc4ccc(C)cc4c3=O)C(=O)N2CCCN2CCOCC2)cc1 (stereo not drawn)	1.7	0.14
83	C/C(CC12CC3CC(CC(C3)C1)C2)=N\O	nt	-0.99
84	CC1(C)C=Cc2cc(/C(N)=N/O)ccc2O1	nt	-0.87
85	O=C1c2ccncc2C(=O)N1c1ccc2c(c1)OCO2	-0.05	nt
86	Cn1c(=O)c2c(nc(N3CCCCC3)n2CCN)n(C)c1=O	nt	-1.3
87	COc1cc2c(cc1NS(=O)(=O)c1ccc3c(c1)CCCC3)n(C)c(=O)n2C	0.52	nt
88	CC(C)Cn1cc(NC(=O)N2CCN(c3ccccc3)CC2)c2ccccc2c1=O	1.5	nt
89	N#CCCc1cc(C(F)(F)F)cc(C(F)(F)F)c1	nt	-0.28
90	Cc1oc(-c2cccs2)nc1CN1N=NC2C(=O)N(c3cccc(Cl)c3)C(=O)C21 (stereo not drawn)	2.4	-0.92
91	CC(C)(C)C(=O)NCC(c1ccco1)S(=O)(=O)c1ccccc1 (stereo not drawn)	2.1	nt
92	Clc1ccc(-c2nc3ncccn3c2NC2CCCCC2)cc1	0	nt
93	O=c1c2cc3c(cc2nc2sc(NCc4ccco4)nn12)OCO3	0.11	nt
94	Cc1nc(C)c(-c2ccc(SCC(=O)Nc3ccc(F)c(F)c3)nn2)s1	1.2	nt
95	O=C(c1ccco1)N1CCN(S(=O)(=O)c2cc3c4c(c2)CCC(=O)N4CCC3)CC1	1.6	nt
96	Clc1ccc(Nc2ccc(-n3ccnc3)nn2)cc1	-1.2	-2.6
97	CCOC(=O)C(C)Oc1ccc2oc(C)c(C(=O)OC)c2c1 (stereo not drawn)	nt	-3.1
98	O=C(Nc1cc(C(F)(F)F)cc(C(F)(F)F)c1)Nc1c(Br)cc(Br)cc1-c1nn[nH]n1	nt	-1.8
99	O=C(CC1(O)C(=O)N(Cc2ccc(Cl)cc2)c2ccccc21)c1ccco1 (stereo not drawn)	nt	0.23
100	Cc1ccc(-c2nc(CSCC(=O)NC(C)(C)C)no2)cc1	2	nt
101	CS(=O)(=O)c1ccc(-c2cccc(NS(=O)(=O)c3ccc(Oc4ccccc4)cc3)c2)nn1	0.51	nt
102	Cc1ccc(C(CNC(=O)c2cccs2)N2CCCC2)o1 (stereo not drawn)	0.56	-1.6
103	O=C(Nc1ccccc1)NC(c1ccc(F)cc1)c1nnc(-c2ccccc2)o1 (stereo not drawn)	0.94	nt
104	Cc1nn(Cc2ccc(C(=O)O)cc2)c(C)c1Br	1.1	-0.05
105	CCN(CC)S(=O)(=O)c1ccc(S(=O)(=O)N(Cc2ccc(F)cc2)Cc2ccco2)cc1	1.9	-1.2
106	COc1ccc(N(Cc2cc(CN3CCOCC3)cs2)S(=O)(=O)c2ccc(OC)cc2)cc1	0.69	nt
107	c1ccc(-c2cc(-c3ccccc3)[nH]n2)cc1	-0.8	0.78
108	C[n+]1ccn(CC(=O)c2cc(C(C)(C)C)c(O)c(C(C)(C)C)c2)c1	0.53	-1.7
109	Cc1nc(N(C)C)cc(N2CCN(C(=O)Nc3ccccc3Cl)CC2)n1	0.66	-2.7
110	CCOc1ccc(OCC(=O)Nc2nnc3n2CCCS3)cc1	1.2	nt
111	Cn1c(-c2ccc3c(c2)OCO3)cc(=O)c2ccccc21	0.2	nt

# Outcome played no part in choosing rows. About 0.89% of those tested had a hit in this group.
